Assay outcomes: PubChem, National Center for Advancing Translational Sciences (NCATS)
Sfp PPTase inh = Sfp phosphopantetheinyl transferase inhibition; Q9F4F7; Biochemical Sfp PPTase activity, qHTS; Potency, µM, for the others: max response, negative = inhibition, actives largely listed as inhibitors; 310,000 compounds, 3.5% hits; AID 1490; active = well fitted inhibition curve with a large enough effect; inconclusive = small, poorly fitted or top-dose-only effect, or another doubt; inactive = no such curve, though single readings can be large or run the other way;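 note: the enzyme is Sfp with the accession as filed and its product quenches rhodamine fluorescence; potency is the fitted concentration of half-maximal effect; 0% = enzyme reaction without inhibitor and -100% = no enzyme wells; top concentration of the series not given in the record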
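Sfp 15 nM + cpd, 15 min RT; start w/ rhodamine-CoA 5 uM, BHQ-2-YbbR 12.5 uM (final); 50 mM Hepes pH 7.6, 10 mM MgCl2, 0.01% NP-40, 0.01% BSA; read 525/598 nm at 0 and 30 min.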
PINK1 expr mod = PINK1 expression modulation. PINK1 immunofluorescence, high-content cytometry, 24 h. Potency, µM (titrated, usually from 76.6 µM), for the others: top-dose activation (PINK1 increase), hits mostly activators. 410,000 compounds, 0.2% hits. AID 624263; active = well fitted activation curve with a large enough effect; inconclusive = small, poorly fitted or top-dose-only effect; inactive = flat fitted curve, though single readings scatter; cell line not stated here;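 note: potency is the fitted concentration of half-maximal effect; % of control where 0% means no effect; nearly all actives have a fitted effect of over 65% in size; a mitochondrial uncoupler was the plate control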
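PINK1 protein level read as immunofluorescence by microplate cytometer in a fixed, stained stable cell line after 24 h exposure to five compound concentrations, with CCCP as control.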
D2 PAM = potentiates the human D2 dopamine receptor allosterically. potentiation, % (no concentration beside the values). AID 624464. 360,000 compounds, 0.23% hits. P14416. DiscoveRx D2 beta-arrestin cells, luminescence, 90 min; 100% = 57 uM dopamine signal; active = potentiation of 50% or more; inconclusive = 30% to 50%; inactive = 30% or less;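 note: compound concentration not given in the record; tested on top of an EC20 dose of dopamine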
Target sequence (P14416 whole entry, looked up): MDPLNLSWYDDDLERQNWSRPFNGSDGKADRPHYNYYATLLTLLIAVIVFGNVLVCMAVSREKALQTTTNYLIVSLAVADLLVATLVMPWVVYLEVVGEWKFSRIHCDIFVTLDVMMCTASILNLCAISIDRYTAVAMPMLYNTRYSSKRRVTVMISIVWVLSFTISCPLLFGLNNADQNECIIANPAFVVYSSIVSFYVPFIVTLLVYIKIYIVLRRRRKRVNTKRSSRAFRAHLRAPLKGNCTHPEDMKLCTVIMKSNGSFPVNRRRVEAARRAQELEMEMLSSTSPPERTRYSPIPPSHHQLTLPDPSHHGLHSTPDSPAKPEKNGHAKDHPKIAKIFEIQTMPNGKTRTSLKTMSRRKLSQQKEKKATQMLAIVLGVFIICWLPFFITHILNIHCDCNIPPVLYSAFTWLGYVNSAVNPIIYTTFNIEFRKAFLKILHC
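PathHunter beta-arrestin assay in DiscoveRx D2 cells. Compounds were added with an EC20 of dopamine (50 nM final) for 90 min at 37 deg C. Luminescence was read 1 h after detection reagent, with 57 uM dopamine as the EC100 control.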
TRPV1 potentiator = enhances activation of the human vanilloid receptor TRPV1; TRPV1-expressing cells, Fluo-8 calcium influx, capsaicin EC20 potentiation; host cell line not named in the record; control for the full effect not named in the record; potentiation, % at 8.33 µM; 320,000 compounds, 0.02% hits; AID 540277; Q8NER1; active means potentiation above 80%; inconclusive means 30% to 80%; inactive means below 30%; note: 0% is about no effect
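Cells expressing TRPV1 were dye-loaded with Fluo-8 and read kinetically: 10 s baseline, 3 min after compound (agonist portion), then 2 min after EC20 capsaicin (allosteric enhancer portion). Calcium-bound dye fluorescence at 480/520 nm.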
CtBP-E1A inh = CtBP/E1A binding inhibition | AlphaScreen GST-E1A/His-CtBP binding, 1536-well; active compounds read low; control for the full effect not named in the record | activity change, % (concentration not given with the values) | 340,000 compounds, 0.49% hits | AID 651724; in the data active means activity change below about -65%; inconclusive means about -30% to -65%; inactive means above about -30%; note: % is set by controls: 0 for no effect and ±100 for the full control effect
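Homogeneous bead-based format: GST-tagged E1A captured on glutathione donor beads, His-tagged CtBP on nickel acceptor beads; compounds precede bead addition by 2 h at 37 °C.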
D2 agonist = agonists of human D2 dopamine receptor (beta-arrestin); activation, % (no concentration beside the values); P14416; 360,000 compounds, 0.084% hits; DiscoveRx PathHunter D2 beta-arrestin, luminescence, 90 min; 100% = 57 uM dopamine signal; in the data active = activation above about 40%; inconclusive = about 15% to 40%; inactive = below about 15%; note: compound concentration not given in the record; the text of the record calls up to 30% inactive
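DiscoveRx PathHunter D2 beta-arrestin cells (2,100/well) attached overnight, then compound-stimulated 90 min at 37 C in HBSS/10 mM HEPES/0.1% Tween-20 buffer; beta-galactosidase complementation read by luminescence after 1 h at ambient temperature. Dopamine 57 uM final (EC100) as control.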
Six1-Eya2 inh = inhibitors of human Six1/Eya2 interaction; Q15475+O00167; AlphaScreen GST-Six1/His-Eya2 binding, biochemical; active compounds read low; control for the full effect not named in the record; activity change, % (concentration not given with the values); 360,000 compounds, 0.56% hits; in the data active = activity change below about -65%; inconclusive = about -30% to -65%; inactive = above about -30%; note: % is set by controls: 0 for no effect and ±100 for the full control effect
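Six1/Eya2 binding was read as AlphaScreen signal after compounds were pinned into GST-Six1 plus His-tagged Eya2 (5X stock 250/500 nM) in pH 8.0 Tris/NaCl/TCEP buffer, beads added, then incubated 1 h, 37 C, dark.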
Numbers without * were called inactive; ? = inconclusive; . = no result given; [ ] = remark or other dose. The order is random; 3.7% or so of the library scored in one or more.

Second line of a record – CtBP-E1A inh, Sfp PPTase inh, PINK1 expr mod, D2 PAM, Six1-Eya2 inh, D2 agonist, TRPV1 potentiator
CCCCn1c(C(C)NC(=O)c2cccs2)nc2ccccc21 (stereo unspecified)
 : -1.0, 7.1%, -3.4%, -32.6, -0.9, -2.5, 4.9
CCN(Cc1cnn(C)c1)C(=O)CC1C(=O)NCCN1Cc1cccc(OC)c1OC (stereo unspecified)
 : 8.1, 10.5%, -0.3%, -4.9, 1.9, 6.1, 1.3
COc1cc2cc(CN(Cc3cccnc3)C(=O)Nc3ccccc3)c(=O)[nH]c2cc1OC
 : -7.2, 7.0%, 2.3%, -5.7, -13.9, 2.7, 8.9
O=C(NC1CCCCC1)C(c1ccncc1)N(C(=O)c1csnn1)c1ccccc1 (stereo unspecified)
 : 0.9, -5.7%, 0.3%, 1.0, 5.9, 2.9, 3.5
Cc1ccc(N2CCOCC2)c2c1C(=O)c1ccccc1C2=O
 : ?, 1.2%, -1.6%, -30.6, -75.9*, -4.6, 21.4
c1ccc2c(c1)nc(N1CCOCC1)c1nnnn12
 : -4.0, ?, 0.8%, 3.7, 5.0, 0.1, -6.9
CCCC1(CCC)NC(=O)N(CC(=O)Nc2ccccc2OC)C1=O
 : -4.6, -7.0%, -1.3%, 0.2, -0.6, -5.1, ?
O=C(NC1CCCC1)c1cc2c(ccc3ccccc32)o1
 : 1.3, -6.1%, 7.1%, -14.0, -1.8, 0.0, -7.6
Nc1ccc2nc[nH]c2c1
 : -8.1, -19.8%, -0.6%, ?, ?, 7.4, 4.3
CCCc1[nH]nc2c1C(c1ccc(O)cc1OCC)C(C#N)=C(N)O2 (stereo unspecified)
 : 0.1, 8.3%, 5.0%, -18.0, -29.1, -3.1, 4.0
CCCS(=O)(=O)N1CCN(Cc2ccccc2OCC)CC1
 : 4.7, -24.7%, 3.2%, -29.1, -3.4, -3.7, 7.6
COCCNC(=S)NC1CC2CCCC(C1)N2Cc1ccco1 (stereo unspecified)
 : -5.1, 3.9%, ., -16.2, -1.9, -0.7, 15.1
O=C(CSc1nc2ccccc2c(=O)n1Cc1ccco1)N1CCCC1
 : -2.1, 2.4%, -1.8%, 3.0, -6.8, 2.9, -1.2
O=C(Nc1ccon1)c1ccc(OC2CCCC2)cc1
 : 4.0, 7.0%, 2.9%, -3.9, -9.4, -4.5, -12.3
CC(C)(C)NC(=O)c1ccc2nsnc2c1
 : -0.6, -2.1%, 2.3%, -6.1, 12.7, 0.7, 6.0

Overlap with the part before: 3 compounds, then new ones.
Second line of a record – CtBP-E1A inh, Sfp PPTase inh, PINK1 expr mod, D2 PAM, Six1-Eya2 inh, D2 agonist, TRPV1 potentiator
O=C(CSc1nc2ccccc2c(=O)n1Cc1ccco1)N1CCCC1
 : -2.1, 2.4%, -1.8%, 3.0, -6.8, 2.9, -1.2
O=C(Nc1ccon1)c1ccc(OC2CCCC2)cc1
 : 4.0, 7.0%, 2.9%, -3.9, -9.4, -4.5, -12.3
CC(C)(C)NC(=O)c1ccc2nsnc2c1
 : -0.6, -2.1%, 2.3%, -6.1, 12.7, 0.7, 6.0
CCn1nc(C)c(CNC(=O)Nc2ccc3c(c2)OCO3)c1C
 : 3.7, -2.4%, 0.7%, -4.3, 1.2, -7.1, 13.0
COc1cccc(OCc2cc(C(=O)NC(C)c3cnn(C)c3C)no2)c1 (stereo unspecified)
 : 7.7, 17.8%, 1.3%, 0.4, 2.9, -0.2, -5.6
COC(=O)C1CCN(c2cc(=O)n(Cc3ccc(F)cc3)c(=O)[nH]2)CC1
 : -14.6, -10.9%, ., -4.6, -6.3, -1.1, 9.0
CC(CCC(C)OC(=O)c1ccccc1C(=O)O)OC(=O)c1ccccc1C(=O)O (stereo unspecified)
 : 6.2, 4.0%, -0.1%, -8.4, 3.4, -2.0, -3.1
COCCN(C(=S)Nc1cc(C)cc(C)c1)C(C)c1ccco1 (stereo unspecified)
 : ., 17.8%, 1.5%, -12.3, 2.1, -3.9, -2.2
CC(=O)c1ccc(OCC(O)CN2CCN(S(=O)(=O)c3c(C)cc(C)cc3C)CC2)cc1 (stereo unspecified)
 : 0.2, -28.5%, 0.1%, -6.3, -5.2, 1.0, 1.9
O=c1ccc2cc(S(=O)(=O)Nc3ccc(Br)cc3)ccc2o1
 : 7.5, 10.7%, 1.8%, -1.1, 3.3, 1.5, 1.7
COc1cc(/C=N/NC(=O)c2ccncc2)ccc1OCCN1CCCCC1
 : 5.8, 12.7%, 1.6%, -19.0, -0.6, -5.2, 4.2
Cc1cc(C)cc(OC(=O)CCN2C(=O)c3ccccc3C2=O)c1
 : 13.0, -12.3%, 12.0%[38.3 µM], -15.0, 10.1, -0.8, 8.4
O=C(c1ccc(Oc2ccc([N+](=O)[O-])cc2)cc1)N1CCCCCC1
 : -5.4, -10.7%, -1.5%, -3.3, -1.7, -6.5, 7.2
COC(=O)c1c(C)[nH]c(C(=O)CSc2ncnc3sc(-c4ccccc4)cc23)c1C
 : -18.6, 18.7%, ?, 4.2, 15.2, -4.9, -0.2
COc1cc(/C=N/NC(=O)c2cccnc2)ccc1OS(=O)(=O)c1ccc(C)cc1
 : 1.0, 3.1%, 6.6%, -1.2, -6.7, 0.8, 4.6
COc1ccccc1N1CCN(S(=O)(=O)CCNC(=O)C2CCCCC2)CC1
 : -20.9, ., 2.8%, -22.2, 9.1, -0.2, -7.1
C#CCCOC(=O)N1C2=NC(C(=O)OC)=C(C(=O)OC)[C@@H]3N(C)c4ccc(OC)cc4[C@]23C[C@H]1C(=O)OC
 : -17.6, -2.7%, 0.5%, -8.5, -26.4, -3.7, .
Cc1cc(C)c(NC(=O)CS(=O)CC(=O)Nc2cccnc2)c(C)c1 (stereo unspecified)
 : 9.1, 16.0%, -1.1%, -2.1, 0.3, -0.8, 3.8
COc1ccc(N2CCN(C(=O)COC(=O)c3ccco3)CC2)cc1
 : -3.1, 2.9%, -3.9%, -9.4, 10.8, -2.7, -0.2
CC(=O)N1c2ccc(S(=O)(=O)N3CCCCC3)cc2CC1C(=O)NCc1ccccc1C (stereo unspecified)
 : -2.9, 12.8%, 0.0%, -6.9, -2.8, -2.9, -22.3
O=c1[nH]c(CN2CCCCC2)nc2ccccc12
 : 2.0, -16.6%, 3.5%, 26.9, -2.2, -1.9, 5.4
C/C(CC(=O)NC1CCCCC1)=N\NC(=O)Cc1ccc(-c2ccccc2)cc1
 : -13.0, -1.5%, 12.9%, -7.2, 2.0, -1.0, -13.4
COc1cccc(CN(C)C(=O)CC[C@H]2O[C@@H](n3ccc(=O)[nH]c3=O)[C@H](O)[C@@H]2O)c1
 : 0.3, ., 2.1%, -1.6, 1.8, -7.1, .
O=C(O)c1c2c(nc3ccccc13)/C(=C/c1ccccc1[N+](=O)[O-])CCC2
 : -11.2, 2.1%, 1.7%, -9.1, -4.2, -0.3, ?
CC(=O)Oc1ccc(C(=O)Nc2ccc3c(c2)OCCO3)cc1
 : 5.3, 4.3%, 3.5%, -0.2, -9.8, 3.1, 12.1
CC1CC(=O)NN=C1c1cccs1 (stereo unspecified)
 : -3.5, 6.4%, 0.0%, -3.6, -0.2, -2.2, 7.0
OCCN1CCOCCOCCN(CCO)CCN(CCO)CC1
 : 1.1, -0.7%, 1.3%, 15.4, 1.0, -0.6, 11.2
O=C(CCC1CC(=O)Nc2ccccc21)NCc1cccnc1 (stereo unspecified)
 : -2.7, 6.8%, 0.6%, -3.3, 8.6, -30.3, -5.3
O=C1C=CN(Cc2ccccc2)C(c2ccccc2)C1 (stereo unspecified)
 : -0.6, ., -0.2%, -17.0, 5.0, -2.1, .
O=C(O)CCCC(=O)N1CCN(C(c2ccccc2)c2ccccc2)CC1
 : ., 5.1%, -0.2%, -7.5, -0.5, -6.1, -4.3
O=C(CSc1nc2c(sc3ccccc32)c(=O)n1-c1ccccc1)NCc1ccco1
 : -14.7, -15.6%, 5.1%, 1.2, 8.0, 2.3, 0.7
COc1cccc(-c2sc3ccc(OC)cc3c2C#CC(C)(C)O)c1
 : 3.4, ., 1.9%, -4.7, 1.1, -0.3, -9.8
Cc1ccc(-c2nc(S(=O)(=O)c3ccc(C)cc3)c(SCC(N)=O)o2)cc1
 : -2.2, -14.7%, 6.7%, -1.3, 7.0, 3.2, 13.0
Cc1ccc(CSc2nc3c(c(=O)[nH]2)CCC3)cc1
 : 5.7, -11.4%, 3.9%, -14.3, 0.9, -0.9, -20.5
Cc1cccc(NC(=O)C2CCCN2/C=C/C(=O)C(F)(F)F)c1C (stereo unspecified)
 : 17.6, 4.1%, -0.7%, -10.0, 11.5, -2.9, -2.5
Cc1cc(C)n(CC(=O)c2ccc(Cl)cc2)n1
 : 7.4, 13.4%, -0.5%, 1.9, 12.9, 4.0, 5.7
O=C(NCCCN1CCOCC1)c1ccc(CSCc2cccc(Cl)c2)o1
 : -3.3, -7.8%, 0.1%, -12.0, 5.9, -6.0, -18.0
O=C(CCCN1C(=O)c2ccccc2C1=O)N1CCN(c2ccccn2)CC1
 : -3.8, 2.1%, -2.4%, -7.3, 3.2, -1.9, -1.5
Cc1ccccc1OCc1nnc(SCC(=O)NCc2ccco2)n1C
 : 0.0, 8.4%, -0.2%, 0.4, -1.1, 2.9, 4.9
O=C(NCCc1ccccc1)C(=O)NCC1CCCN1S(=O)(=O)c1cccs1 (stereo unspecified)
 : -9.5, ., 6.6%, -3.1, -1.4, -1.8, ?
N#Cc1cnc(SCCc2ccccc2)nc1N
 : 21.8, 0.5%, 10.5%, 20.9, 10.9, -1.8, -16.2
Nc1ncnc2c1ncn2[C@@H]1O[C@H](C(=O)N2CCN(c3nc4ccccc4o3)CC2)[C@@H](O)[C@H]1O
 : 5.9, ., 0.2%, -1.6, 5.7, -6.1, .

4 records drawn at random from those above, as already listed:
Second line of a record – CtBP-E1A inh, Sfp PPTase inh, PINK1 expr mod, D2 PAM, Six1-Eya2 inh, D2 agonist, TRPV1 potentiator
Cc1cc(C)n(CC(=O)c2ccc(Cl)cc2)n1
 : 7.4, 13.4%, -0.5%, 1.9, 12.9, 4.0, 5.7
Nc1ncnc2c1ncn2[C@@H]1O[C@H](C(=O)N2CCN(c3nc4ccccc4o3)CC2)[C@@H](O)[C@H]1O
 : 5.9, ., 0.2%, -1.6, 5.7, -6.1, .
O=C(NCCCN1CCOCC1)c1ccc(CSCc2cccc(Cl)c2)o1
 : -3.3, -7.8%, 0.1%, -12.0, 5.9, -6.0, -18.0
Cc1ccc(CSc2nc3c(c(=O)[nH]2)CCC3)cc1
 : 5.7, -11.4%, 3.9%, -14.3, 0.9, -0.9, -20.5
